Bioassay records (PubChem)
TRPML1 ag: qHTS for Agonists of the Human Mucolipin Transient Receptor Potential 1 (TRPML1). TRPML1-expressing cells, Ca2+ dye fluorescence, FDSS; host cell line not named in the record; reference of the full effect not given here. activation, % (test concentration not listed). 410,000 compounds, 0.12% hits; in the data active = activation above about 50%; inconclusive = about 30% to 50%; inactive = below about 30%; also: 0% is about no effect; the text of the record puts the active cut at 80%
Target sequence (Q9GZU1 whole entry, looked up): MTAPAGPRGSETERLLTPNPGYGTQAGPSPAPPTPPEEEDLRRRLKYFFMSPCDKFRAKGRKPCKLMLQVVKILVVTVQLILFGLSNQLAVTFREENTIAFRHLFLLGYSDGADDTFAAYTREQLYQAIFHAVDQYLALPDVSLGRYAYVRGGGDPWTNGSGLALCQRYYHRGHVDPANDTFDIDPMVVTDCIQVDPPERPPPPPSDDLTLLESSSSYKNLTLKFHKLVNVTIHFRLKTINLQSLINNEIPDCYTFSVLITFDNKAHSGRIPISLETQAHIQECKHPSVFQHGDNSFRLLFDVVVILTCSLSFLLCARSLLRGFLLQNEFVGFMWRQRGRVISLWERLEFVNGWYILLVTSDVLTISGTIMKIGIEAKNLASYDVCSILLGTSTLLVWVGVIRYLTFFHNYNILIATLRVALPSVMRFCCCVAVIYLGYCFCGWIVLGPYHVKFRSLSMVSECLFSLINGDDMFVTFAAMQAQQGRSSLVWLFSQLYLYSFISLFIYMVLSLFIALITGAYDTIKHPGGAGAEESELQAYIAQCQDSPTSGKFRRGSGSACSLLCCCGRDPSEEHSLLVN
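Cells: TRPML1-DL, 1X Tet inducer, ~16 h at 37 degrees C/5% CO2. Dye: ABD Ca8 no-wash + quencher, 45-90 min RT. Read: 10 s baseline, compound add, 110 s agonist phase; 54-4 EC80 (4uM final), 110 s antagonist phase.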
D2 agonist: Beta-Arrestin HTS for Positive Allosteric Modulators of the Human D2 Dopamine Receptor: Agonists | D(2) dopamine receptor (Homo sapiens), P14416 | DiscoveRx PathHunter D2 beta-arrestin, luminescence, 90 min; 100% = 57 uM dopamine signal | activation, % (no concentration beside the values) | 360,000 compounds, 0.084% hits | AID 624465, 2012; in the data active = activation above about 40%; inconclusive = about 15% to 40%; inactive = below about 15%; also: compound concentration not given in the record; the text of the record calls up to 30% inactive
Target sequence (P14416 whole entry, looked up): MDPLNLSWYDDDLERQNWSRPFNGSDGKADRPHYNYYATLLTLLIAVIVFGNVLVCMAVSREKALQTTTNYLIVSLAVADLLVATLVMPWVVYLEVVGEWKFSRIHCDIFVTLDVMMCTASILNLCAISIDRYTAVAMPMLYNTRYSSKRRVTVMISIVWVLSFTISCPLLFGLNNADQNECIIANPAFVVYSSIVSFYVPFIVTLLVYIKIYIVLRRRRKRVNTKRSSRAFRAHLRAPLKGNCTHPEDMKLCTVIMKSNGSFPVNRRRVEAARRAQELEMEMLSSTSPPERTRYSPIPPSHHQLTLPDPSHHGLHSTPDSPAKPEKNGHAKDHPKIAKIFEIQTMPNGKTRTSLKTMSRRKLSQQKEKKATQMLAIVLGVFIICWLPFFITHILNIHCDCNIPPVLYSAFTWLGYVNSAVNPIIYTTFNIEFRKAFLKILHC
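Agonist mode: compounds alone added to overnight-plated D2 PathHunter cells for 90 min at 37 C, with 57 uM final dopamine (EC100) defining full response. Beta-arrestin recruitment detected by chemiluminescent reagent, read after 1 h at ambient temperature.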
PINK1 modulator: A Quantitative High throughput Screen to Identify Chemical Modulators of PINK1 Expression; Potency, µM (doses to about 76.6 µM), for inactives: at the highest dose activation (PINK1 increase), usual class: activators; PINK1 immunofluorescence, high-content cytometry, 24 h; AID 624263, 2012; 410,000 compounds, 0.2% hits; active = well fitted activation curve with a large enough effect; inconclusive = small, poorly fitted or top-dose-only effect; inactive = flat fitted curve, though single readings scatter; cell line not stated here;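 also: potency is read from the fitted curve at half-maximal effect; % of control where 0% means no effect; nearly all actives have a fitted effect of over 65% in size; a mitochondrial uncoupler was the plate control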
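Cells are seeded, rested 12 hours, then given compound at five concentrations or DMSO for 24 hours. After fixation, blocking and antibody staining, PINK1 amount and mitochondrial localization are scored; CCCP serves as control.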
CtBP-E1A inh: qHTS Assay for Inhibitors of the CtBP/E1A Interaction. AID 651724, 2012. AlphaScreen GST-E1A/His-CtBP binding, 1536-well; active compounds read low; control for the full effect not named in the record. activity change, % (test concentration not listed). 340,000 compounds, 0.49% hits. CtBP / adenovirus E1A interaction (AlphaScreen); in the data active means activity change below about -65%; inconclusive means about -30% to -65%; inactive means above about -30%; also: % is scaled to controls: 0 for no effect and ±100 for the full control effect
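Protein mix (5X: 125 nM each GST-E1A, His-CtBP) was incubated with pinned compound 2 h at 37 deg C in dark, in 50 mM Tris pH 8.0 buffer with 300 mM NaCl. Glutathione donor and nickel acceptor beads followed; AlphaScreen signal read after 1 h.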
TRPML1 inh: qHTS for Inhibitors of the Human Mucolipin Transient Receptor Potential 1 (TRPML1). Mucolipin-1 (Homo sapiens), Q9GZU1. TRPML1-inducible cells, Ca2+ dye fluorescence, FDSS; active compounds read low; inhibition of EC80 agonist-evoked calcium signal. activity change, negative = inhibition, % (no concentration beside the values). 390,000 compounds, 0.02% hits; in the data active means activity change below about -50%; inconclusive means about -30% to -50%; inactive means above about -30%;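 also: stimulus is agonist 54-4 at its EC80 concentration; % is scaled to controls: 0 for no effect and ±100 for the full control effect; compound concentration not given in the record; the text of the record puts the active cut at -80%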
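Calcium fluorescence in TRPML1-DL cells induced overnight with Tet: a 110 s read after compound pin addition, then a 110 s antagonist read after challenge with 54-4 at 4 uM final (EC80).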
Six1-Eya2 blk: qHTS Assay for Inhibitors of the Six1/Eya2 Interaction; activity change, % (no concentration beside the values); AlphaScreen GST-Six1/His-Eya2 binding, biochemical; active compounds read low; control for the full effect not named in the record; AID 651725, 2012; 360,000 compounds, 0.56% hits; in the data active = activity change below about -65%; inconclusive = about -30% to -65%; inactive = above about -30%; also: % is scaled to controls: 0 for no effect and ±100 for the full control effect
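GST-Six1 + His-Eya2 (5X stock: 250/500 nM); Tris pH 8.0, 300 mM NaCl, 0.05% BSA, 0.02% Tween 20; GSH donor/Ni acceptor beads; 1 h 37 °C dark; AlphaScreen readout.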
* marks the source's active call; other numbers are inactive results; ? = inconclusive; . = no result given; & = joins results of further samples; [ ] = remark or other dose.

SMILES	TRPML1 ag	D2 agonist	PINK1 modulator	CtBP-E1A inh	TRPML1 inh	Six1-Eya2 blk
CS(=O)(=O)Nc1nc2n(n1)C(c1ccccc1)CC(c1ccccc1)N2 (centres undefined)	-0.3	-1.1	-2.1%	10	15	6
CCN(Cc1ccccc1)C(=O)c1cc2c(=O)[nH]c3ccc(C)cc3c2s1	0.2	.	0.9%	.	-2	.
CCOc1cccc2cc(C(=O)NCc3ccccc3Cl)c(=O)oc12	2.3	-2.5	10%	4	21	0
CC(C)CC(NC(N)=O)C(=O)NCCc1ccc(Cl)cc1 (centres undefined)	-0.5	-2.9	2.1%	0	-14	1
Cc1ccc(NC(=O)C2CCCN(S(=O)(=O)c3cnc[nH]3)C2)c(Br)c1 (centres undefined)	0.2	-1.8	-0.1%	-2	-19	2
Cc1ccc(SCCC(=O)N/N=C/c2ccncc2)cc1	-0.5	-4.9	0.6%	0	12	-1
CCOC(=O)c1[nH]c(C)c(C(=O)Nc2ccc3c(c2)CCC3)c1C	-0.1	-1.3	6.0%	1	7	8
C=CCn1c(SCc2ccc(Cl)c(Cl)c2)nnc1C(CO)NC(=O)c1ccc(OC)cc1 (centres undefined)	-0.4	2.8	0.3%	-6	-3	-6
CCN(Cc1ccccc1)C(c1cc2cc(C)cc(C)c2[nH]c1=O)c1nnnn1CCOC (centres undefined)	2.2	-1.0	9.8%	-3	-13	10
O=C(Nc1cccc(O)c1)c1cc2nc(-c3ccc(Br)cc3)cc(C(F)(F)F)n2n1	1.2	.	6.4%	.	-10	.
CN(C)c1nc(N(C)C)nc(N2CC(=O)N(c3ccccc3)C2=N)n1	1.4	-3.1	0.7%	.	38	1
C=C(C)COc1ccc(-c2ncncc2-c2ccccc2)c(O)c1	2.4	5.1	9.7%	-7	25	-5
COC(=O)c1c(C)[nH]c(C(=O)OCc2csc(CC(=O)Nc3ccccc3C)n2)c1C	0.0	-2.1	12%	-4	16	-6
CCCCNC(=O)Nc1cc(C(=O)OC)ccc1Cl	4.4	-3.3	-0.8%	2	2	6
Cc1cc2c(c3oc(=O)c4ccccc4c13)CN(Cc1ccc(F)cc1)CO2	0.0	.	-0.7%	.	-6	.
COCCN(CC(=O)Nc1cccc(C)c1C)C(=O)c1cc2ccccc2cc1OC	1.1	1.5	-1.2%	-7	-7	5
O=C(COc1ccccc1)Nc1nnc(S(=O)(=O)N2CCCCCC2)s1	-0.3&0.0	-0.9	3.6%&3.1%	-23	0&0	8
CCC(=O)Nc1ccc(S(=O)(=O)Nc2c(NC)c3ccccc3oc2=O)cc1	-1.0	-0.1	3.8%	1	-6	-2
O=c1[nH]nc2n1CCCCC2	0.0	-2.0	2.3%	2	-6	-2
O=[N+]([O-])c1cc(C(F)(F)F)cc([N+](=O)[O-])c1NCCCN1CCOCC1	-0.6	6.6	-0.5%	-4	-3	-7
O=[N+]([O-])c1ccc(O)c(/C=N/Nc2nc3ccccc3[nH]2)c1	2.9	-12	-0.3%	-97*	4	-92*
COc1ccc(CCNC(=O)COC(=O)CCC(=O)c2ccc(F)cc2)cc1OC	-1.7	-2.1	3.7%	5	-11	10
Cc1cc2ncn(C3CC(=O)N(Cc4ccc(N5CCCC5=O)cc4)C3=O)c2cc1C (centres undefined)	0.6	0.7	0.5%	-1	-16	-8
O=[N+]([O-])c1ccc2[nH]cc(S(=O)(=O)N3CCN(c4cccc(Cl)c4)CC3)c2c1	-0.3	3.4	?	?	16	-21
O=Cc1c(NCCc2ccc(F)cc2)c2ccccc2[nH]c1=O	0.2	-0.9	0.9%	3	-3	5
c1ccc(SCCN2CCc3ccccc3C2)cc1	0.0	-12	7.4%	.	?	15
Cn1c(Nc2ccc(F)cc2)nc2cc(-c3ccsc3)sc2c1=O	-0.6	3.0	0.2%	6	15	-1
CCN(CC)c1nc2c(s1)C(=O)CC(C)(C)C2	0.8	-4.6	2.6%	-1	-2	12
CCOc1ccccc1-c1cncc(NC)n1	-0.9	-5.4	-1.1%	-1	.	-12
Cc1ccc(-n2ncc(C(=O)NCCN3CCCC3)c2C2CCN(C(=O)OC(C)(C)C)CC2)cc1C	0.8	.	0.8%	.	20	.
CCN(CC)c1ncnc2c1ncn2[C@H]1CN(Cc2ccccc2)C[C@@H](CO)O1	-0.4	-3.5	1.5%	0	.	5
CC(C)=CCN1CCN(Cc2cnc(N3CCCC3)s2)CC1CCO (centres undefined)	-0.6	-0.5	0.4%	5	3	2
C/C(=N\NC(=O)c1ccc2ccccc2c1)c1cccnc1	0.2	-2.5	1.1%	-8	-2	-4
CCOC(=O)N/N=C/c1cc(C)n(-c2ccccc2)c1C	0.6	-0.9	1.7%	.	16	-1
CC1CN(Cc2nc3c(c(=O)n(C)c(=O)n3C)n2Cc2ccccc2)CC(C)O1 (centres undefined)	0.3	-2.5	0.1%	-13	10	-19
COc1ccc(NC(=O)CSc2nnc(CNC(=O)c3ccco3)o2)cc1	0.0	-1.9	0.2%	-18	7	-1
CCOc1ccc(C2c3c(oc4cc(C)c(C)cc4c3=O)C(=O)N2CCCN2CCOCC2)cc1 (centres undefined)	-0.2	2.8	-0.1%	-3	4	1
COc1ccc(NC(=O)/C(=C\c2ccccc2)NC(=O)c2ccco2)cc1	-0.1	-1.5	4.1%	7	0	12
O=C(N/N=C/c1ccccc1)C(=O)N/N=C/c1ccccc1	0.8	-3.2	0.1%	2	10	4
COc1ccccc1C(=O)Nc1nc(-c2ccc(Br)cc2)ns1	1.5	.	1.0%	.	-18	.
O=[N+]([O-])c1ccc(/C=N/N2CCN(c3ccncc3S(=O)(=O)N3CCCCC3)CC2)cc1	-0.2	-2.4	5.7%	5	45	8
CCCc1nc2ccccc2n2c(-c3ccccc3)c3c(=O)n(C)c(=O)n(C)c3c12	2.1	.	1.9%	.	22	.
O=S(=O)(NCc1cn2ccccc2n1)c1cc(F)ccc1F	-0.1	1.5	0.0%	-1	9	13
COc1ccc(NC(=O)Nc2cccc(-c3cn4cccnc4n3)c2)cc1	1.8	.	1.5%	.	-5	.
CN(C)c1ccc(/C=C2/NC(=O)NC2=O)cc1	0.5	-6.5	-0.5%	.	-8	-3
O=C(Nc1c(C(=O)N2CCC(N3CCCCC3)CC2)oc2ccccc12)c1c(F)cccc1F	-0.1&0.2	-3.7	-0.4%&-3.4%	2	4&-1	5
COc1ccc(CCC(=O)Nc2cc([N+](=O)[O-])ccc2OC)cc1	0.0	-3.6	17%	1	-8	0
O=C(O[C@@H](C(=O)O)[C@@H](OC(=O)c1ccccc1)C(=O)O)c1ccccc1	0.4	-0.8	-0.3%	4	8	7

Sorted by the number under TRPML1 inh (ascending): 3 from the list above.
Compound	D2 agonist	CtBP-E1A inh	TRPML1 inh	Six1-Eya2 blk
COc1ccccc1C(=O)Nc1nc(-c2ccc(Br)cc2)ns1	.	.	-18	.
CN(C)c1ccc(/C=C2/NC(=O)NC2=O)cc1	-6.5	.	-8	-3
COc1ccc(NC(=O)Nc2cccc(-c3cn4cccnc4n3)c2)cc1	.	.	-5	.

Back to the main list with the 5 entries that preceded the break.
SMILES	TRPML1 ag	D2 agonist	PINK1 modulator	CtBP-E1A inh	TRPML1 inh	Six1-Eya2 blk
COc1ccc(NC(=O)Nc2cccc(-c3cn4cccnc4n3)c2)cc1	1.8	.	1.5%	.	-5	.
CN(C)c1ccc(/C=C2/NC(=O)NC2=O)cc1	0.5	-6.5	-0.5%	.	-8	-3
O=C(Nc1c(C(=O)N2CCC(N3CCCCC3)CC2)oc2ccccc12)c1c(F)cccc1F	-0.1&0.2	-3.7	-0.4%&-3.4%	2	4&-1	5
COc1ccc(CCC(=O)Nc2cc([N+](=O)[O-])ccc2OC)cc1	0.0	-3.6	17%	1	-8	0
O=C(O[C@@H](C(=O)O)[C@@H](OC(=O)c1ccccc1)C(=O)O)c1ccccc1	0.4	-0.8	-0.3%	4	8	7
Cc1ccc(O)c(N/C=C/C(=O)c2ccc(F)cc2)c1	2.3	?	7.0%	2	28	-7
Cc1cccc(CC(=O)N2CCC(n3nccc3NC(=O)C3CC3)CC2)c1	1.1	-2.6	-0.1%	7	-12	0
C=CCN(CC=C)C(=S)NC(=O)/C=C/c1ccc(C)cc1	4.3	-1.6	0.8%	14	16	-5
CCC1(c2ccc(Cl)cc2)NC(=O)N(CC(=O)NC2(C#N)CCCCC2)C1=O (centres undefined)	0.5	-2.4	-1.4%	-15	21	-10
CCc1ccc(N2C(=O)CSC23C(=O)N(Cc2cccc(OC)c2)c2ccccc23)cc1 (centres undefined)	1.7	.	1.2%	.	5	.
CCOc1ccc(CCNC(=O)COC(=O)c2cccs2)cc1OCC	-0.2	-2.6	0.5%	-9	-12	22
Cc1cccc(-n2cnc(C(=O)O)c2)n1	0.4	-1.1	0.6%	0	28	-16
CCCN1C(=O)C(NC(=O)c2ccncc2)(C(F)(F)F)C2=C1CC(C)(C)CC2=O (centres undefined)	0.7	2.5	0.3%[38.3 µM]	4	23	8
Cc1nn(C(=O)c2nn(C)cc2[N+](=O)[O-])c(C)c1Cl	0.6	-4.4	-0.6%	0	-11	4
CCOC(=O)c1cc(C#N)c(N2CCN(c3ccccn3)CC2)nc1-c1ccccc1	3.0	2.1	-1.4%	1	9	9
CN(C)S(=O)(=O)N(CC(=O)NCCSCc1ccccc1Cl)c1ccccc1	1.0	.	0.5%	.	24	.
O=c1cc2nc(-c3ccccc3)nc(SCc3cccc(Br)c3)n2[nH]1	1.1	.	3.9%	.	34	.
Cc1ccc(S(=O)(=O)Nc2cccc(C(=O)NCc3ccc(S(N)(=O)=O)cc3)c2)cc1	-0.8	0.1	0.2%	.	-12	-1
CCOc1cc(/C=C2/C(=N)N3OC(C)=CC3=NC2=O)ccc1OC(=O)c1ccco1	2.0	-8.2	1.7%	-3	-2	-2
Cc1nn(C(C)C(=O)N2CCc3ccccc32)c(C)c1[N+](=O)[O-] (centres undefined)	-0.4	-0.1	-6.0%[38.3 µM]	9	-8	2
Cc1ccc2c(c1)c1c3n2CCN(CCC(=O)O)C3CCC1 (centres undefined)	-0.4	-2.0	-2.2%	2	1	0
CN(C)N1C(N)=C(C#N)C(c2ccsc2)C2=C1CC(C)(C)CC2=O (centres undefined)	-0.7	-7.4	1.6%	-6	-29	4

Rewritten with two lines to a compound: three of the compounds above.
Under each structure – TRPML1 ag | D2 agonist | PINK1 modulator | CtBP-E1A inh | TRPML1 inh | Six1-Eya2 blk
O=Cc1c(NCCc2ccc(F)cc2)c2ccccc2[nH]c1=O
  0.2 | -0.9 | 0.9% | 3 | -3 | 5
c1ccc(SCCN2CCc3ccccc3C2)cc1
  0.0 | -12 | 7.4% | . | ? | 15
Cn1c(Nc2ccc(F)cc2)nc2cc(-c3ccsc3)sc2c1=O
  -0.6 | 3.0 | 0.2% | 6 | 15 | -1
